Source: PubChem
CBX7 AlphaScr – CBX7 chromodomain binding inhibitors, primary screen, biochemical, AlphaScreen; 1.1% of 66,000 active; AlphaScreen His6-CBX7 / biotin-H3K27me3 peptide binding; stronger effect = lower value; normalised signal (fraction of DMSO) (no concentration beside the values); Chromobox protein homolog 7 (Homo sapiens), O95931; AID 1224903, 2016; in the data active means normalised signal below about 0.5;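 further: 100 nL library stock added to about 20 µL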
Target sequence (O95931 whole entry, looked up): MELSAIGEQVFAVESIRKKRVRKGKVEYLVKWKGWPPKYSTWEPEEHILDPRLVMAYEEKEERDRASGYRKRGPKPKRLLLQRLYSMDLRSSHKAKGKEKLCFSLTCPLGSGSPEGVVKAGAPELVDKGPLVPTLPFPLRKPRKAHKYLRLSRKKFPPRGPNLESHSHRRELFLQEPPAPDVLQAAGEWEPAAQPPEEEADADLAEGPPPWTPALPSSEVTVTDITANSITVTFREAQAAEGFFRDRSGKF
CBX7 AlphaScr z-score – also measured in CBX7 AlphaScr; calls as there; z-score; measured here: z-score of CBX7 signal; some inactives read as strong as hits; reference of the scale not given here;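 same signal on another scale; lower means less binding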
An asterisk follows results filed as active. Not all compounds are listed; the hit share may differ from the screen's.

Start of the listing, in advance (13 entries):
SMILES | CBX7 AlphaScr | CBX7 AlphaScr z-score
COc1ccccc1NC(=O)CCc1c(C)nc2c(-c3ccccc3)c(C)nn2c1C | 1.1 | 1.5
CCOc1ccc(NC(=O)c2cn(CC)c3nc(C)ccc3c2=O)cc1 | 1.1 | 0.72
COc1ccc(C(=O)N(Cc2nc(-c3cccc(C)c3)no2)C(C)C)cc1 | 0.84 | -1.6
Cc1ccc(Nc2nnc(Cc3ccccc3)c3ccccc23)cc1 | 1.1 | 1.2
CCCN(c1ccc(C(C)C)cc1)S(=O)(=O)c1ccc2c(c1)CCN2C(C)=O | 1.2 | 1.8
COc1ccc(Nc2cc(C(=O)NCc3ccc4c(c3)OCO4)c3ccccc3n2)c(OC)c1 | 0.78 | -3.4
CC(=O)c1cccc(Nc2c3c(nc4ccccc24)CCC3)c1 | 1.1 | 1.9
COCCNC(=O)c1c[nH]n2c(=O)c(Cc3ccc(Cl)cc3)c(C)nc12 | 1 | 1.7
COc1ccc(CN2C(=O)c3cccnc3C2Nc2cc(Cl)c(OC)cc2OC)cc1 (stereo not drawn) | 0.073* | -12*
Cc1cccc(C)c1NC(=O)C(NC(=O)c1ccc(-n2cnnn2)cc1)c1ccccc1 (stereo not drawn) | 0.98 | -0.11
COc1ccc(NC(=O)CSc2nccn2C)cc1 | 1 | 0.073
COc1ccc(CCNC(=O)c2sc3nc(-c4ccccc4)cn3c2C)cc1OC | 0.93 | -1.4
COc1ccc(C2CC(=O)N(CC(=O)NCc3ccc(F)cc3)c3ccccc3S2)cc1OC (stereo not drawn) | 1 | 0.11

Results, from the start:
SMILES | CBX7 AlphaScr | CBX7 AlphaScr z-score
COc1ccccc1NC(=O)CCc1c(C)nc2c(-c3ccccc3)c(C)nn2c1C | 1.1 | 1.5
CCOc1ccc(NC(=O)c2cn(CC)c3nc(C)ccc3c2=O)cc1 | 1.1 | 0.72
COc1ccc(C(=O)N(Cc2nc(-c3cccc(C)c3)no2)C(C)C)cc1 | 0.84 | -1.6
Cc1ccc(Nc2nnc(Cc3ccccc3)c3ccccc23)cc1 | 1.1 | 1.2
CCCN(c1ccc(C(C)C)cc1)S(=O)(=O)c1ccc2c(c1)CCN2C(C)=O | 1.2 | 1.8
COc1ccc(Nc2cc(C(=O)NCc3ccc4c(c3)OCO4)c3ccccc3n2)c(OC)c1 | 0.78 | -3.4
CC(=O)c1cccc(Nc2c3c(nc4ccccc24)CCC3)c1 | 1.1 | 1.9
COCCNC(=O)c1c[nH]n2c(=O)c(Cc3ccc(Cl)cc3)c(C)nc12 | 1 | 1.7
COc1ccc(CN2C(=O)c3cccnc3C2Nc2cc(Cl)c(OC)cc2OC)cc1 (stereo not drawn) | 0.073* | -12*
Cc1cccc(C)c1NC(=O)C(NC(=O)c1ccc(-n2cnnn2)cc1)c1ccccc1 (stereo not drawn) | 0.98 | -0.11
COc1ccc(NC(=O)CSc2nccn2C)cc1 | 1 | 0.073
COc1ccc(CCNC(=O)c2sc3nc(-c4ccccc4)cn3c2C)cc1OC | 0.93 | -1.4
COc1ccc(C2CC(=O)N(CC(=O)NCc3ccc(F)cc3)c3ccccc3S2)cc1OC (stereo not drawn) | 1 | 0.11
Cc1cccc(C)c1-n1nnnc1SCC(=O)Nc1ccc(OC(F)(F)F)cc1 | 1.1 | 4.5
Cc1ccc(-c2ccc(=O)n(CCC(=O)NC3CC3)n2)cc1 | 0.99 | -0.19
Cc1ccc(NS(=O)(=O)c2ccc3nc(-c4ccccc4)[nH]c3c2)cc1C | 0.72 | -0.37
CCCN1C(=O)CC(c2ccc(OC)cc2)Sc2ccccc21 (stereo not drawn) | 1.1 | 1
Cc1cccc(-c2noc(-c3ccc(C)c(Cl)c3)n2)c1 | 1.1 | 3.3
Cc1ccc(OCc2nnc(NC(=O)c3ccc(C(C)(C)C)cc3)s2)cc1 | 1.1 | 1.7
Cc1ccc(Sc2cc(C(=O)NCc3ccccn3)c3ccccc3n2)cc1 | 0.88 | -3.5
Cn1cc(CC(=O)NCCN2CCOCC2)c2ccccc21 | 1 | 1.6
O=C(CN1CCN(Cc2ccc(F)cc2Cl)C1=O)NCCc1ccccc1 | 0.83 | -2.4
Cc1cc(OCc2nc(-c3ccc(OCC(N)=O)cc3)no2)cc(C)c1Cl | 0.98 | -0.26
CCOC(=O)c1ccc(NC(=O)C2(c3ccc(OC)c(OC)c3)CCCC2)cc1 | 0.83 | -2
Cc1ccccc1OCCCCCc1c(C)n[nH]c1C | 0.97 | -1.3
Cc1nc2sc(C(c3cccs3)N3CCN(Cc4ccccc4)CC3)c(O)n2n1 (stereo not drawn) | 0.97 | -1.2
COc1ccc2c(c1C)CCC(C1(O)C(=O)N(C)c3ccccc31)C2=O (stereo not drawn) | 1 | 0.021
CCC1=Nc2cc(C(=O)NC3CCC(C)CC3)ccc2Sc2ccc(Br)cc21 (stereo not drawn) | 0.92 | -3.9
CCCCCn1c(CNC(=O)CC)nc2ccccc21 | 1.2 | 1.8
Cc1ccccc1NCc1nc2ccccc2n1Cc1ccccc1F | 0.95 | -1.5
CN1CCN(C2CC(=O)N(c3cccc(Br)c3)C2=O)CC1 (stereo not drawn) | 0.87 | -2.1
Cc1ccc(S(=O)(=O)N2CCC(C(=O)Nc3cccc(F)c3)CC2)cc1 | 1.1 | 2.4
COc1cccc(C2=NOC(C(=O)Nc3cccc(C(F)(F)F)c3)C2)c1OC (stereo not drawn) | 1 | 1
CCCc1cc(C(=O)NCc2ccc(OC)cc2)no1 | 1.1 | 1.7
O=C(NCCc1ccccc1)C1CCCN(S(=O)(=O)c2cccs2)C1 (stereo not drawn) | 1.1 | 0.94
CC1=C(c2ccccc2)C(NC(=O)CN2CCCCCC2)=Nc2ccccc2N1 | 0.94 | -3.1
O=C(NCc1nnc(SCC(=O)N2CCCC2)o1)c1ccccc1F | 1 | 0.66
Cc1ccc(Nc2c(-c3ccc(C)cc3)nc3ccccn23)cc1 | 1.3 | 2.9
Cc1ccc2c(c1)N(CCC(=O)NCCN(C)C)C(=O)CO2 | 1.1 | 2.1
CCN(CC)CCCN=C1NC2CS(=O)(=O)CC2S1 (stereo not drawn) | 0.98 | -0.29
Cc1cccc(C)c1NC(=O)C(Cc1ccccc1)N1C(=O)c2ccccc2C1=O (stereo not drawn) | 0.97 | -0.076
CCOC(=O)c1cnc2c(C)cc(C)cc2c1Nc1cccc(C(=O)O)c1 | 0.96 | -0.63
Cc1ccccc1C(=O)Nc1cccc(-c2nc3ccccc3[nH]2)c1 | 0.92 | -0.64
CN1C2CCC1CC(N(CCc1c[nH]c3ccccc13)C(=O)c1cc(Cl)cc(Cl)c1)C2 (stereo not drawn) | 0.89 | -4.1
O=C(c1cc(-c2ccc(O)cc2)on1)N1CCOCC1 | 1 | -0.0095
O=S(=O)(c1ccccc1)c1nc(Cc2ccccc2)oc1N1CCCCCC1 | 0.83 | -5.2
COc1ccc(Cn2c(=O)c3cccnc3n(CC(=O)Nc3ccccc3F)c2=O)cc1 | 0.99 | -0.23
CCn1c(SCC(=O)NCCc2ccccc2)nnc1-c1c[nH]c2ccccc12 | 1.1 | 0.69
CCc1ccc(NC(=O)CCC(=O)Nc2ccc3nc(N4CCCCC4)cc(C)c3c2)cc1 | 1 | -0.012
Cc1ccc2nc(-c3ccccc3Cl)c(Nc3ccc(Cl)cc3)n2c1 | 1.1 | 1.1
O=C(NCCc1ccsc1)c1cc2c(s1)-c1ccccc1OC2 | 1 | 0.34
CC(C(=O)NCc1ccc(F)cc1)C1Sc2ccccc2N(Cc2cccc(Cl)c2)C1=O (stereo not drawn) | 1.1 | 1.2
CN(CC(=O)Nc1ccc(F)c(Cl)c1)S(=O)(=O)c1cccc2cccnc12 | 0.98 | -0.5
O=C(c1ccc2c(c1)N(Cc1ccccc1F)C(=O)c1ccccc1S2=O)N1CCCCC1 (stereo not drawn) | 1 | 0.44
C=CCNC(=O)Cn1nc(-c2ccccc2)ccc1=O | 1 | 0.062
O=C(O)c1ccc(S(=O)(=O)c2ccc3c(c2)C(=O)N(c2ccccn2)C3=O)cc1 | 1.1 | 2.5
CCOc1cc2[nH]c(=O)n(Cc3ccc(C(=O)NCCCN4CCC(C)CC4)cc3)c(=O)c2cc1OCC | 0.95 | -0.91
Cc1ccc(CCN2CC(C(=O)NCCCN3CCC(C)CC3)CC2=O)cc1 (stereo not drawn) | 1.1 | 1.6
O=C(NC1CCCCC1)c1cc(-c2ccncc2)nc2ccccc12 | 0.98 | -0.29
COc1ccccc1NC(=O)c1c(C)nc(Nc2nc3ccccc3o2)nc1C | 1 | 0.066

Carrying on.
SMILES | CBX7 AlphaScr | CBX7 AlphaScr z-score
COc1ccc(-c2noc(CCC(=O)N3CCN(c4cccc(Cl)c4)CC3)n2)cc1 | 1.1 | 0.12
CCOC(=O)c1ccc(N2CCN(c3cccc(Cl)c3)CC2)c(NC(=O)Nc2ccccc2)c1 | 0.73 | -1.1
CCN1CCN(c2ncc(C(=O)Nc3ccc(F)c(Cl)c3)c3ccccc23)CC1 | 1.7 | 1.5
COc1ccc(-c2nnc(NC(=O)c3cccs3)s2)cc1OC | 1.1 | 0.2
COc1ccc(-c2csc(Nc3cccc(C(C)=O)c3)n2)cc1OC | 0.79 | -3.8
Cc1ccc(C(=O)N(Cc2nc(-c3ccc(Cl)cc3)no2)C(C)C)c(C)c1 | 0.81 | -1.9
Cc1ccccc1Cn1cc(NC(=O)c2cc(-c3ccco3)on2)cn1 | 1.1 | 1.9
O=C(CN1CCN(Cc2cccc(Cl)c2)C1=O)NCCN1CCOCC1 | 0.99 | -0.16
Cc1cccc(NC(=O)c2oc3ccc(S(=O)(=O)N(C)C4CCCCC4)cc3c2C)c1C | 1.1 | 3
Cc1c(C(=O)NCC2COc3ccccc3O2)oc2ccc(S(=O)(=O)N(C)C3CCCCC3)cc12 (stereo not drawn) | 0.86 | -1.4
COCCCNc1ccc2nnc(-c3ccc(F)cc3)n2n1 | 0.7 | -4.3
COCCCNC(=O)CCc1nc(-c2ccc(C)cc2)no1 | 0.83 | -0.23
Cc1ccc(Nc2cc(C)nc3nc(C)nn23)c(Cl)c1 | 0.99 | -0.12
Cc1ccc2nc(SCC(=O)Nc3ccc(Cl)cc3)[nH]c2c1 | 1.1 | 0.65
COc1ccc(-c2nc(CS(=O)(=O)CC(=O)N3CCOCC3)c(C)o2)cc1 | 1 | 0.86
Cc1ccc(-c2nc(CS(=O)(=O)CC(=O)NC3CCCC(C)C3C)c(C)o2)cc1 (stereo not drawn) | 1.1 | 1.4
O=C(Nc1ccc(F)cc1)N1CCN(c2ccc3nncn3n2)CC1 | 0.97 | -0.48
CCc1ccc(OCC(=O)Nc2cc(-c3nc4ncccc4o3)ccc2C)cc1 | 1.3 | 2.4
O=C(NCCC1=CCCCC1)c1nnc(Cc2ccc(F)cc2)o1 | 1 | 0.13
CCOCCn1cnc2sc(C(=O)NCCCN(CC)CC)c(C)c2c1=O | 1.1 | 1.1
COc1cccc(NC(=O)CSc2nccn2-c2ccccc2)c1 | 0.83 | -6.5
COc1ccc(N2CCN(CCCNC(=O)COc3ccc4c(c3)C(=O)CC(C)(C)O4)CC2)cc1 | 0.6 | -7.9
O=C(Cn1nc(-c2ccc(Cl)cc2)ccc1=O)NCc1cccnc1 | 1 | 0.83
Cc1ccc(-n2c3c(cc(C(=O)Nc4ccc(F)cc4)c2=O)C(=O)CCC3)cc1 | 0.88 | -0.41

Rewritten field by field: 2 of the compounds above
> CCc1ccc(OCC(=O)Nc2cc(-c3nc4ncccc4o3)ccc2C)cc1
  CBX7 AlphaScr = 1.3 | CBX7 AlphaScr z-score = 2.4

> O=C(NCCC1=CCCCC1)c1nnc(Cc2ccc(F)cc2)o1
  CBX7 AlphaScr = 1 | CBX7 AlphaScr z-score = 0.13

Next part.
SMILES | CBX7 AlphaScr | CBX7 AlphaScr z-score
CCOC(=O)c1cnc2c(C)cc(C)cc2c1Nc1ccc(OC)cc1 | 1.1 | 0.85
O=C1C(Oc2ccccc2)C(c2ccc3c(c2)OCO3)N1C1CCCC1 (stereo not drawn) | 1 | 0.97
O=C1CSC(c2cn(-c3ccccc3)nc2-c2ccc(Cl)cc2)N1Cc1ccccc1 (stereo not drawn) | 1 | 0.18
Cn1nc(CC(=O)Nc2ccc(OC(=O)c3ccccc3)cc2)c2ccccc2c1=O | 1.1 | 0.13
COc1ccc2nc(SCC(=O)NCc3ccccc3)[nH]c2c1 | 0.95 | -0.86
COc1ccc(OC)c(NC(=O)c2cc3c(-c4ccc(Cl)cc4)nn(C)c3s2)c1 | 0.87 | -0.55
Cc1cc(N2CCOCC2)nc(-c2ccccc2O)n1 | 1 | 0.38
CCn1c(=O)c(=O)n(CC)c2cc(S(=O)(=O)NCc3ccc(C)cc3)ccc21 | 1 | 1.1
COc1cccc(CNC(=O)CCCN2C(=O)CSc3ncccc32)c1 | 1.1 | 0.97
CCOCCCNc1nc(-c2ccccc2)nc2ccccc12 | 1.1 | 2.1
COC(CNC(=O)C1CCCN(Cc2nc(-c3ccc(Cl)cc3)oc2C)C1)OC (stereo not drawn) | 1 | 1.1
COc1ccc(Cl)cc1NC(=O)CSc1nnc(CNC(=O)c2ccccc2F)o1 | 0.85 | -2.5
Cc1ccc(CN2C(=O)C(O)(CC(=O)c3ccccn3)c3ccccc32)cc1 (stereo not drawn) | 0.61 | -0.43
Cc1nc2cc(-c3cccc(F)c3)nn2c(C)c1CCC(=O)NCc1ccccn1 | 0.98 | -0.59
COc1ccc(NC(=O)c2c(NCc3cccc(OC)c3OC)sc3c2CCCC3)cc1 | 0.7 | -4.2
CCN1C(=O)c2ccccc2S(=O)c2ccc(C(=O)N3CCCCCC3)cc21 (stereo not drawn) | 0.94 | -1.4
COc1ccc(NC(=O)CSc2nccn2-c2ccccc2)c(OC)c1 | 0.83 | -3.6
COc1cccc(-c2cc(C(=O)Nc3cnn(Cc4ccccc4C)c3)no2)c1 | 1.1 | 3.1
O=C(NCCc1ccccc1)c1cc(=O)[nH]c2ccccc12 | 0.55 | -0.51
Cc1oc(-c2ccccc2Cl)nc1CSCC(=O)NCc1ccc2c(c1)OCO2 | 0.77 | -0.65
CC1CC(C)CN(S(=O)(=O)c2ccc3c(c2)N(CC(=O)N2CCCC2)C(=O)CO3)C1 (stereo not drawn) | 1 | 0.26
